Bioassay records: PubChem BioAssay, ICCB-Longwood Screening Facility, Harvard Medical School
MenB inh: Mtb MenB enzyme inhibition. P9WNP5. MenB enzyme assay, absorbance read-out; some hits fall short of the stated cut. inhibition, %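 (about 12 µg/mL by stock and volumes)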. 100,000 compounds, 0.43% hits;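 active = mean of two replicates above 30%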;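 note: 0% = no compound and 100% = wells with inactive enzyme; the first replicate is given; strong numbers were not always called active; inactives centre near -10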
PV pol inh: inhibitors of poliovirus RNA polymerase binding and polymerization; poliovirus polymerase elongation, fluorescence polarization; active compounds read low; % elongation, % (compound at 16.7 µg/mL); 150,000 compounds, 0.66% hits; in the data active = % elongation below about 90%; note: some results filed as inactive read as strong as hits
Target sequence (P03300 1749-2209 limits assumed): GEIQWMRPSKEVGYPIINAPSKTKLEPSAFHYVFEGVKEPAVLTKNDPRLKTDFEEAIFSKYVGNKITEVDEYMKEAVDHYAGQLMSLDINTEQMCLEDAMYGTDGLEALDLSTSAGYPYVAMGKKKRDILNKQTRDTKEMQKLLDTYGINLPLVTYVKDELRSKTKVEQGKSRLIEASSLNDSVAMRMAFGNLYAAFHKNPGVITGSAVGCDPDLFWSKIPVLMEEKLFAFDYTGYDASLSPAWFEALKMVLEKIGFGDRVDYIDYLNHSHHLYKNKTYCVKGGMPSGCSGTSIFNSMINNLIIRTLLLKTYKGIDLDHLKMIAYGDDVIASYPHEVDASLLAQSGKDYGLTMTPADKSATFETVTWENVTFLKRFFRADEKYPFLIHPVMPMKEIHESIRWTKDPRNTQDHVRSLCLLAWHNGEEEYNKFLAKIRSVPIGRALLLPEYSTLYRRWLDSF
Mtb MbtI inh: MbtI salicylate synthase inhibition. P9WFX0. purified MbtI enzyme, fluorescence intensity read-out. inhibition, %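 (about 17 µg/mL by stock and volumes)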. 100,000 compounds, 0.89% hits. AID 493033;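 active = above 50% in both replicates, above 80% if mildly self-fluorescent; inactive = the rest, strongly fluorescent compounds included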;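 note: 0% = mean of negative and 100% = mean of positive controls; one replicate is shown; some compounds called inactive have numbers as strong as hits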
Target sequence (P9WFX0 whole entry, looked up): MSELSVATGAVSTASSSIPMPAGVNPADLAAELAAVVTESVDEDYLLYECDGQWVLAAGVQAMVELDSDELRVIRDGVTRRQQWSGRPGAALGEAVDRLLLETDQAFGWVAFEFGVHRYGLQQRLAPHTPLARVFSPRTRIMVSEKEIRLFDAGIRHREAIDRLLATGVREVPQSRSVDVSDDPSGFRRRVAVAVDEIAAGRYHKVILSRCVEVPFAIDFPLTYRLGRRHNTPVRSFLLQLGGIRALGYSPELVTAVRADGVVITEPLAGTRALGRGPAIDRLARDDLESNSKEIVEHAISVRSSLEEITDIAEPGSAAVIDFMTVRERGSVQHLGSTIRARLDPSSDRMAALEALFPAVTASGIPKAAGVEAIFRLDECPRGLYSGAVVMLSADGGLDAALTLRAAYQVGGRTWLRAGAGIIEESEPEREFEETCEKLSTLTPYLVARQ
PV pol inh intensity: further read-out of PV pol inh, marked with its call; % elongation; measured here: total intensity read-out; formula for this scale not given here;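 total fluorescence in place of polarization; lower means less elongation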
* hit, by the source's call; i = inactive; . = not tested or not shown; & = joins results of further samples.

Each structure is followed by: MenB inh | PV pol inh | PV pol inh intensity | Mtb MbtI inh
- Nc1c(C(=O)NC2CCCC2)nnn1-c1ccccc1
 : -3 | 103 | 104 | -1
- Cc1cc(C(F)(F)F)nc(SCC(=O)NCc2cccc(C(F)(F)F)c2)n1
 : -23 | 102 | 96 | 7
- CS(=O)(=O)c1cccc(S(=O)(=O)c2cccc(S(C)(=O)=O)c2)c1
 : -40 | 103 | 99 | -12
- CCOc1cc(N2CCOCC2)c(OCC)cc1NC(=O)c1cc(-c2ccco2)nc2ccccc12
 : -13 | 100 | 102 | 0
- CC1=C(C(=O)Nc2cccc(C(F)(F)F)c2)C(c2ccc3c(c2)OCO3)NC(=O)N1 (stereo not drawn)
 : -12 | 104 | 110 | 5
- C[N+]1(CC(O)COc2ccccc2F)CCOCC1 (stereo not drawn)
 : . | 105 | 108 | -3
- O=C(Cc1ccccc1)Nc1ccc(N2CCCC2=O)cc1
 : 8 | 102 | 101 | -2
- Nc1ccc(N2CCOCC2)cc1
 : 0 | 97 | 96 | .
- Cc1cc(NC(=O)c2cc(C3CC3)on2)no1
 : -8 | 102 | 102 | -7
- CCOC(=O)C1CCN(c2nc3cc(Br)ccc3s2)CC1
 : 8 | 105 | 100 | 11
- O=C(COc1ccc2ccc(=O)oc2c1)N1CCc2ccccc21
 : -2 | 106 | 115 | 10
- Cc1ccc(C(=O)Nc2ccccc2N2CCCCC2)c(C)c1
 : -17 | 99 | 101 | 7
- CCOC(=O)c1c(S(=O)(=O)NCc2ccccc2)c(-c2ccccc2)n(-c2ccccc2)c1C
 : 10 | 106 | 110 | -15
- N#Cc1ccc(CCC(=O)c2cccs2)cc1
 : -20 | 111 | 106 | -7
- S=C(NCc1ccco1)NC1OCCOC1NC(=S)NCc1ccco1 (stereo not drawn)
 : -5 | 100 | 98 | 11
- Cn1cnnc1Sc1ccc(Cl)cc1NC(=O)c1ccc(C#N)cc1
 : -23 | 103 | 107 | 66
- c1cncc(-c2nc3c4ccccc4nc(NCCCN4CCCCCC4)n3n2)c1
 : -15 | 101 | 97 | 4
- COCCCNC1CCOc2ccccc21 (stereo not drawn)
 : -26 | 104 | 107 | 3
- COc1ccc(CNC(=O)c2ccc3nc(N4CCOCC4)sc3c2)cc1
 : -18 | 103 | 105 | -5
- N#Cc1ccccc1NC(=O)c1ccc(N2C(=O)CCC2=O)cc1
 : -5 | 100 | 100 | 3
- CCS(=O)(=O)N1CCC(C(=O)N2CCc3ccccc3C2)CC1
 : 14 | 103 | 99 | 4
- CCOc1ccc(C(=O)OCC(=O)N2CCCCC2)cc1OCC
 : 8 | 102 | 107 | 4
- CC(=O)Oc1ccccc1C(=O)NCc1ccc(F)cc1
 : 9 | 101 | 102 | i
- CON1C(=O)c2ccccc2C1=O
 : -14 | 104 | 101 | 5
- Cc1ccc(S(=O)(=O)NN(C)C)cc1
 : -36 | 102 | 104 | -7
- CC(NC(=O)c1ccccc1)c1ccc(F)cc1 (stereo not drawn)
 : -11 | 103 | 97 | 5
- O=C(NCc1ccco1)C1CCN(c2nccc(C(F)(F)F)n2)CC1
 : 3 | 101 | 104 | 0
- O=C(/C=C1\NC2(CCCC2)Cc2ccccc21)N1CCOCC1
 : -51 | 100 | 101 | -10
- Nc1c(S(=O)(=O)c2ccccc2)c2nc3ccccc3nc2n1C1CC1
 : 12 | 99 | 106 | 66
- Cc1ccc(/C=C/C(=O)N(Cc2nc3ccccc3c(=O)[nH]2)CC2CCCO2)o1 (stereo not drawn)
 : -9 | 101 | 110 | 2
- C(=NCc1ccccc1)c1cn(-c2ccccc2)nc1-c1cccs1
 : 6 | 102 | 103 | 16
- O=C(O)CCCN=C1NC(=O)CC(=O)N1
 : -61 | 109 | 103 | .
- COc1ccc(C=Nc2nonc2N)cc1
 : -13 | 101 | 106 | .
- N#CC1(NCCNC2(C#N)CCCCC2)CCCCC1
 : -1 | 106 | 103 | 3
- COc1ccccc1NCC(=O)N/N=C/C=C1/N(C)c2ccccc2C1(C)C
 : -22 | 97 | 95 | 11
- CNC(=S)N(CCN1CCOCC1)Cc1cc2cc(C)c(Cl)cc2[nH]c1=O
 : 22 | 103 | 102 | -41
- C/C(=C\C(=O)C(F)(F)F)NCC1CCCO1 (stereo not drawn)
 : -10 | 105 | 105 | 9
- COc1ccc(C(=O)C[N+]2=C(C)c3ccc(C)n3CC2)cc1
 : -20 | 102 | 103 | -84
- Cc1cc(SCC(N)=O)nc2ccccc12
 : -4 | 100 | 106 | -3
- COc1ccc(CN2C(=O)N(CC(=O)NC(C)C)c3ccccc3S2(=O)=O)cc1
 : -1 | 100 | 103 | -22
- O=c1sc(N2CCN(C3CCCCC3)CC2)nc2ccsc12
 : -15 | 102 | 102 | 2
- O=C(O)COc1ccc2ccccc2c1Br
 : . | 100 | 104 | -8
- Cc1ccc(-n2c(C)cc(C=Nc3ccc4[nH]c(=O)[nH]c4c3)c2C)cc1
 : -17 | 101 | 95 | -23
- CC(C)(C)NC(=O)C1CCN(S(=O)(=O)c2ccccc2)CC1
 : -6 | . | . | -10
- N#C/C(=C\Nc1cc(C(F)(F)F)cc(C(F)(F)F)c1)S(=O)(=O)c1ccccn1
 : -20 | 106 | 111 | 4
- CC1(C)CC(=NOC(=O)c2ccccc2)CC(C)(C)N1[O]
 : -12 | 101 | 100 | 0
- CC(=O)Nc1cccc(/C(C)=N/NS(=O)(=O)c2ccc(C)cc2)c1
 : -4 | 100 | 102 | -4
- CCCN(CCC)C(=O)CSc1nc2ncccc2[nH]1
 : 9 | 103 | 98 | 13
- CCOC(=O)c1nc(NCCCN2CCc3ccccc3C2)c2ccccc2n1
 : -23 | 104 | 99 | 6
- N#CC1(NC(=O)c2cc3ccccc3oc2=O)CCCCC1
 : 1 | 103 | 102 | 2
- CC1(C)C2CCC1(C)C(OCC[N+]1(C)CCCC1)C2 (stereo not drawn)
 : 8 | 105 | 100 | 2
- COc1ccc(CCN(C)C(=O)Cn2c(=O)oc3ccccc32)cc1OC
 : -18 | 105 | 107 | 2
- CCOC(=O)/C(C#N)=C\c1cn(C)c2ccccc12
 : -44 | 105 | 104 | -3
- CC1(C)CC2CC(C)(CN2CC(O)COCc2ccc(Cl)cc2)C1 (stereo not drawn)
 : 0 | 102 | 103 | -4
- Cn1cnnc1SCc1cccc(CSc2nncn2C)n1
 : -12 | 107 | 103 | .
- CN(C)CCCN1C(=O)C(=O)/C(=C(/O)c2ccc3c(c2)OCO3)C1c1cccnc1 (stereo not drawn)
 : -19 | 102 | 101 | -16
- CC(=O)NC1CC2CCC(C1)N2 (stereo not drawn)
 : -39 | 106 | 104 | -7
- CCCSC(=S)c1c(C)[nH]n(-c2ccccc2)c1=O
 : -78 | 104 | 103 | 0
- Cc1cn(S(=O)(=O)c2cn(C)nc2C(F)(F)F)nc1C(F)(F)F
 : 6 | 102 | 101 | -1
- COc1ccc2c(c1)-c1nc(/N=C/c3ccc(C)o3)sc1CC2
 : -49 | 97 | 97 | 82*

Next part
Each structure is followed by: MenB inh | PV pol inh | PV pol inh intensity | Mtb MbtI inh
- COc1ccc(NCc2cn3ccccc3n2)cc1
 : 4 | 112 | 150 | .
- COc1ccc(-n2c3c(cc(C#N)c2=O)C(=O)CCC3)cc1
 : -13 | 101 | 101 | 6
- N/C(=N\OC(=O)Cc1ccccc1)c1ccncc1
 : -13 | 101 | 103 | -5
- CCC(=O)c1cc2c(C)cc(=O)oc2c(C)c1C(=O)c1ccccc1
 : -22 | 106 | 107 | -44
- CCC(C)NC(=O)CSc1cc(=O)n(C)c2ccc(Cl)cc12 (stereo not drawn)
 : -9 | 100 | 97 | 4
- Cn1c(Cc2cccs2)nnc1SCC(=O)N1CCCc2ccccc21
 : -18 | 101 | 103 | 4
- Cn1cnc2c(=O)oc3ccccc3c21
 : -34 | 99 | 104 | -5
- Cc1cccc(OCC(=O)Nc2ccc(CC(=O)O)cc2)c1C
 : -10 | 103 | 102 | -20
- COc1cccc(C(=O)NCC(C)C)c1
 : -12 | 103 | 101 | -1
- O=C(CCn1nc(-c2ccc(Cl)cc2)c2ccccc2c1=O)N1CCN(Cc2ccccc2)CC1
 : -19 | 101 | 105 | 3
- Cc1sc(NC(=O)C(C)C)c(C(=O)O)c1C
 : 4 | 104 | 107 | .
- O=C(Nc1ccccc1)C1=NN(c2ccccc2)C(=O)CC1
 : -24 | 103 | 100 | 32
- COc1ccc(C(=O)NCc2nnc(SCC(=O)NO)n2-c2cccc(F)c2)cc1
 : 11 | 99 | 100 | 5
- Nc1ccc(Sc2ccc(Cl)cc2)nc1
 : 5 | 99 | 102 | 2
- N#C/C(=C\c1ccc(OC(=O)c2ccco2)cc1)S(=O)(=O)c1ccccc1
 : -64 | 103 | 102 | 1
- Cc1ccc2c(c1)N(CC(=O)NCc1ccccc1Cl)C=NS2(=O)=O
 : 5 | 102 | 103 | -10
- CCOC(=O)N1CCC(NC(=O)C2CCCN(Cc3nc(-c4ccc(CC)cc4)oc3C)C2)CC1 (stereo not drawn)
 : -1 | 101 | 104 | 3
- Cc1nn(Cc2ccccc2Cl)c(C)c1C(=O)n1nnc2ccccc21
 : -14 | 98 | 97 | -8
- CN(C)c1ccc(NC(=O)/C=C/C(=O)O)cc1
 : -5 | 106 | 104 | 9
- Cc1cc(C)cc(N(CC(=O)NCc2ccco2)S(C)(=O)=O)c1
 : 9 | 102 | 101 | -6
- O=c1[nH]c2sc3c(c2c(=O)n1Cc1ccco1)CCCC3
 : -19 | 99 | 103 | 3
- COc1cc(N=Cc2c(O)[nH]c(=O)[nH]c2=O)cc(OC)c1OC
 : -7 | 102 | 106 | .
- COC(=O)c1cc2c(cc1NC(=O)c1c(C)nn(-c3ccccc3)c1-n1cccc1)OCO2
 : -28 | 105 | 100 | -6
- COc1cccc(C2N(c3ccccc3)CCN2c2ccccc2)c1OC
 : -42 | 99 | 103 | 3
- O=C(Nc1ccc(Cl)c(Cl)c1)Nc1ncc2c(n1)CC(c1ccco1)CC2=O (stereo not drawn)
 : -5 | 100 | 104 | -18
- CCOC(=O)c1ccc(NC(=S)N2CCC(N(C)C(C)CC)CC2)cc1 (stereo not drawn)
 : 10 | 102 | 97 | 12
- CC(CCc1ccccc1)N1C(=O)c2ccccc2C1C(=O)NCCc1ccccc1 (stereo not drawn)
 : -20 | 102 | 97 | -9
- Cc1ccc(S(=O)(=O)N/N=C/c2ccc3c(c2)n(C)c(=O)n3C)cc1
 : 2 | 102 | 100 | 1
- Cc1ncc(CO)c(CO)c1O
 : -7&-8 | 103&99 | 106&101 | -47
- CCN(CC(=O)Nc1cccc(OC)c1)C(=O)Cn1nnc2ccccc21
 : 1 | 110 | 118 | -3

Sorted by SMILES length (highest first): part of the list above.
Each structure is followed by: MenB inh | PV pol inh | PV pol inh intensity | Mtb MbtI inh
- O=C(Nc1ccc(Cl)c(Cl)c1)Nc1ncc2c(n1)CC(c1ccco1)CC2=O (stereo not drawn)
 : -5 | 100 | 104 | -18
- COc1ccc(C(=O)NCc2nnc(SCC(=O)NO)n2-c2cccc(F)c2)cc1
 : 11 | 99 | 100 | 5
- CCC(=O)c1cc2c(C)cc(=O)oc2c(C)c1C(=O)c1ccccc1
 : -22 | 106 | 107 | -44
- Cn1c(Cc2cccs2)nnc1SCC(=O)N1CCCc2ccccc21
 : -18 | 101 | 103 | 4
- Cc1sc(NC(=O)C(C)C)c(C(=O)O)c1C
 : 4 | 104 | 107 | .
- COc1ccc(NCc2cn3ccccc3n2)cc1
 : 4 | 112 | 150 | .

(cont.)
Each structure is followed by: MenB inh | PV pol inh | PV pol inh intensity | Mtb MbtI inh
- CCCNC(=O)C1CCCN(c2nn3cc(-c4ccc(C)cc4)nc3s2)C1 (stereo not drawn)
 : 3 | 102 | 104 | -2
- Cc1ccc(-c2nc3sc4c(n3n2)CC(C)(C)CC4=O)cc1
 : 0 | 103 | 106 | .
- Nc1ccccc1N1CCCC1
 : -30 | 97 | 100 | 11
- Cn1cnc(S(=O)(=O)NCc2ccccc2)c1
 : 1 | 102 | 105 | -13
- O=C(CSCC(=O)Nc1cccc2ccccc12)Nc1ccc(Br)cc1
 : -17 | 108 | 107 | .
- COC(=O)c1cccc(Cl)n1
 : . | 101 | 94 | -9
- Cn1nc(-c2nc3c4c5c(sc4[nH]c(=O)n3n2)CCC5)c2ccccc2c1=O
 : -7 | 99 | 101 | -8
- CC(=O)N1c2ccccc2C(C)(C)C2CCC(C)CC21 (stereo not drawn)
 : . | 99 | 96 | -12
- O=C(Cn1nnc(-c2cccs2)n1)NC1CC1
 : -13 | 101 | 105 | 0
- NS(=O)(=O)c1ccc(NC(=O)Cc2cccs2)cc1
 : -28 | 99 | 103 | 0
- CCC(=O)Nc1nn(CC)c2nc3ccccc3cc12
 : -75 | 100 | 102 | 10
- O=C(N(c1ccccn1)C1CCCCC1)C12CC3CC(CC(C3)C1)C2
 : -23 | 101 | 102 | -8
- FC(F)(F)c1cccc(-n2c(-c3ccncc3)n[nH]c2=S)c1
 : -5 | 99 | 107 | 6
- O=C(NCCc1ccccc1)c1cccc(N2CCCC2=O)c1
 : -30 | 104 | 106 | 2
- NC1=NC(=O)C(c2ccccc2Cl)S1 (stereo not drawn)
 : 14 | 101 | 103 | -1
- O=c1[nH]ccc2nc(NCc3ccccc3)ncc12
 : -10 | 98 | 104 | -2
- CCc1nn2c(=O)cc(COc3ccc(C=C(C#N)C#N)cc3OC)nc2s1
 : 14 | 98 | 101 | -4
- CC1CC(C)CN(C(=O)COc2ncnc3ccccc23)C1 (stereo not drawn)
 : . | 100 | 106 | 1
